KCNQ2 block: KCNQ2 potassium channel inhibitors, primary screen, cell-based, CHO-K1, FluxOR thallium flux, B-score (AID 2156); O88943; 20 min; hits give low values; only compounds with negative scores are shown here; some inactives read as strong as hits; B-score at 10 µM; actives 1.1% (n = 310,000);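 active = fluorescence ratio B-score at most minus 3 library SDs, with starting brightness B-score within 2 library SDs, cut at about -5.5 in these data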
Target sequence (O88943 whole entry, looked up): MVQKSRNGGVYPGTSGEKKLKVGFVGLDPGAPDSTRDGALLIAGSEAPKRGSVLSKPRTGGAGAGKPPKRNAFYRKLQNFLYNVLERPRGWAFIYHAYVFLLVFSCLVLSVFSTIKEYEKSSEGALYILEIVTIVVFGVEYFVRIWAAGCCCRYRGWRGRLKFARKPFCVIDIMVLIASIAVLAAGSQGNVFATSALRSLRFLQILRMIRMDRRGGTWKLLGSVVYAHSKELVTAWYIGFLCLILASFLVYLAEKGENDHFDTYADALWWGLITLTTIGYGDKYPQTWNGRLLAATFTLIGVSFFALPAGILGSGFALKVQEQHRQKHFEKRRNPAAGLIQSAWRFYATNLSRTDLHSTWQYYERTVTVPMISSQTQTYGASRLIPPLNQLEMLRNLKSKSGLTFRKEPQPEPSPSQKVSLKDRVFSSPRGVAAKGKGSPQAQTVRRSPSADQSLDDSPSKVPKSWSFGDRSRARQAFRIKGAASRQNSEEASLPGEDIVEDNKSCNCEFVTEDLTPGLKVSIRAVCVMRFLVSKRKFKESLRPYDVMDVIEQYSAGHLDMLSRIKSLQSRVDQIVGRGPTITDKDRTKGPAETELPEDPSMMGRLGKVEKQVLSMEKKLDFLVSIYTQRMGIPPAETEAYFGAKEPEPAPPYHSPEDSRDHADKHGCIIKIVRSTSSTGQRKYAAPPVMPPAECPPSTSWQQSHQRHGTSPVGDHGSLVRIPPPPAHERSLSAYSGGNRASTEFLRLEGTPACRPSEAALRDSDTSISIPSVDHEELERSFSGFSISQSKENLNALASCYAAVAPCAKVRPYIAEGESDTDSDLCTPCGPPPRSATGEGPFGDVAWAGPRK
KCNQ2 block baseline: further read-out of KCNQ2 block, marked with its call; B-score; measured here: initial fluorescence intensity artifact check;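 brightness before thallium and not channel activity; 0 = typical well and far values either way flag optical interference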
Numbers without * were called inactive; i = inactive. Only part of the results is shown. The share of hits here may be higher or lower than overall.

Value order – KCNQ2 block	KCNQ2 block baseline
CCN(CC)S(=O)(=O)c1cc(NS(=O)(=O)c2ccccc2)ccc1C
 : i	2.7
COC(=O)C1=C[C@@H](C(=O)OC)[C@@H]2C3=C(C(=O)C2(C)C)[C@H](c2ccccc2)[C@@H]2C(=O)N(C)C(=O)[C@@H]2[C@@H]3C1
 : i	0.27
CN1CCN(/N=C/c2nc(-c3ccc(Cl)cc3)n3ccccc23)CC1
 : i	1.2
CC1CCCN(C(=O)C(Cc2ccccc2)n2cccc2)C1 (stereo not given)
 : -6.5*	-1*
Cc1cccn2c(=O)c(/C=C(\C#N)C(=O)NCc3ccco3)c(N3CCCCCC3)nc12
 : i	0.06
COc1ccc(OC)c(C2/C(=C(/O)c3ccc(C)cc3)C(=O)C(=O)N2Cc2ccco2)c1 (stereo not given)
 : i	0.76
Cc1cccc2sc(NC(=O)CSCc3ccccc3)nc12
 : i	-0.07
COc1ccc(CCN2CCCn3c2nc2c3c(=O)n(CC(C)C)c(=O)n2C)cc1OC
 : i	0.64
CC(C)OC(=O)COc1cc(O)c2c(=O)cc(-c3ccccc3)oc2c1
 : i	-1.2
Cc1cccc(N2CCN(C(=O)c3cccn4c(=O)c5c(C)c(C)sc5nc34)CC2)c1C
 : i	-2.2
COc1ccc(Cl)cc1NC(=O)CSc1nnc(Cc2cccn2C)n1-c1ccc(F)cc1
 : i	-0.6
NC(=O)COC(=O)c1ccccc1OCc1ccccc1
 : i	0.13
CN(CC(=O)Nc1c(Cl)cccc1Cl)C(=O)c1ccccc1Cc1ccccc1
 : i	0.06
COc1cc(Nc2nc(-c3ccccc3)c3cc(C)ccc3n2)cc(OC)c1OC
 : i	-0.54
CCNC(=O)C(CC(C)C)NC(=O)C(CO)NC(=O)C1CCC(=O)N1 (stereo not given)
 : i	0.97
COc1cccc(C(=O)N2CCN(C(=O)c3cccc(F)c3)CC2)c1
 : i	2.1
O=C(Cc1ccccc1)c1c[nH]c(C(=O)NCCCN2CCOCC2)c1
 : i	0.22
COc1cc2nc(=S)n3[nH]c(CCn4nc(C)cc4C)nc3c2cc1OC
 : i	2.9
Nc1nc(-c2cccs2)cs1
 : i	1.4
CC(=O)c1ccccc1C(=O)N1CCC(n2nccc2NC(=O)C2CC2)CC1
 : i	-1.7
CC(=O)C1=C(O)C(=O)N(Cc2ccccc2)C1c1ccc([N+](=O)[O-])cc1 (stereo not given)
 : i	1.4
CN(c1ccc([N+](=O)[O-])cc1C(=O)Nc1ccccc1)C1CCCCC1
 : i	-1.1
CCCNS(=O)(=O)c1ccc(CCC(=O)NCc2cccnc2)cc1
 : i	1.6
CCOC(=O)N1CCN(C(=O)C(CC)n2nc(C)c3sc4ccccc4c3c2=O)CC1 (stereo not given)
 : i	0.14
Cc1c(C(=O)Nc2ccc(Cl)cc2)c2ccccn2c1CCc1ccncc1
 : i	-0.97
CCn1cnc2c1c(=O)n(Cc1csc(-c3ccccc3)n1)c(=O)n2Cc1ccccc1
 : -9.4*	-0.8*
CC1CCN(S(=O)(=O)c2ccc3[nH]cc(C(=O)NCCN4CCOCC4)c(=O)c3c2)CC1
 : i	1
O=[N+]([O-])c1ccc(Cl)c(S(=O)(=O)Nc2ccc(-c3ccc(N4CCCC4)nn3)cc2)c1
 : i	0.02
CCC1(C)OCC(Cn2c3ccccc3c3ccccc32)O1 (stereo not given)
 : i	0.02
O=C(NC(=S)Nc1ccc2c(c1)OCCO2)c1cccc(Br)c1
 : i	0.29

Next section, starting with the last three of the part before.
Value order – KCNQ2 block	KCNQ2 block baseline
O=[N+]([O-])c1ccc(Cl)c(S(=O)(=O)Nc2ccc(-c3ccc(N4CCCC4)nn3)cc2)c1
 : i	0.02
CCC1(C)OCC(Cn2c3ccccc3c3ccccc32)O1 (stereo not given)
 : i	0.02
O=C(NC(=S)Nc1ccc2c(c1)OCCO2)c1cccc(Br)c1
 : i	0.29
CC(NC(=S)NNS(=O)(=O)c1cccc([N+](=O)[O-])c1)c1ccccc1 (stereo not given)
 : i	-1.4
CCOc1cc(S(=O)(=O)NCc2ccc3c(c2)OCO3)ccc1F
 : i	-0.28
Cc1ccc(C(=O)NC=C(Cl)Cl)cc1
 : i	0.08
COc1ccc(C2=CC(c3cc(OC)c(OC)c(OC)c3)NC(=S)N2)cc1 (stereo not given)
 : i	-0.11
Cc1ccccc1NC(=O)COc1ccc(S(=O)(=O)N2CCCC2)cc1C
 : i	1.3
Cc1ccc(Nc2nc(N3CCOCC3)nc(N3CCOCC3)n2)cc1Cl
 : i	-1.1
CC(=O)c1ccc(S(=O)(=O)N(C)CC(=O)N2CCCCCC2)cc1
 : i	0.12
CN1C(=O)c2ccc(C(=O)Nc3nccs3)cc2C1=O
 : i	0.03
CCOC(=O)C1CCN(c2nc(C)nc3c2oc2ccccc23)CC1
 : i	-0.49
O=C1Cc2ccccc2C(c2c(Cl)cccc2Cl)N1 (stereo not given)
 : i	-0.13
Cc1ccc(C)c(N2CCN(C(=O)c3ccc(NS(=O)(=O)c4c(C)noc4C)cc3)CC2)c1
 : i	-3.6
CC(=O)N/C(=C\c1ccccc1)C(=O)OC/C=C/c1ccccc1
 : i	-0.82
COc1ccc(NC(=O)C2CC(c3ccc(Cl)cc3)=NO2)cc1 (stereo not given)
 : i	-0.53
NC(N)=NS(=O)(=O)c1ccc(NC(=S)NC(=O)/C=C/c2ccco2)cc1
 : i	-0.06
Cc1cc(C(=O)C(C)OC(=O)c2ccc(NC(=O)CC#N)cc2)c(C)n1-c1ccccc1 (stereo not given)
 : i	0.03
Fc1ccc(-c2nnc(-n3nnc4ccccc43)c3ccccc23)cc1
 : i	-0.49
Cc1onc(-c2ccccc2Cl)c1C(=O)Nc1nnc(-c2cccc([N+](=O)[O-])c2)s1
 : i	-0.9
FC(F)(F)c1nc(-c2cccs2)ncc1-c1nnnn1-c1ccc(Cl)cc1
 : i	1.3
COC(=O)C(C)(C)ONC(=O)Nc1ccc(C)cc1
 : i	0.96
COc1ccccc1NC(=S)NCc1ccc(Cl)cc1
 : i	-0.4
CC(C)(C)c1ccc(-c2csc(NNC3=NCCCCC3)n2)cc1
 : i	0.68
CC(C)CC1(C(=O)NCCc2c[nH]c3ccccc23)C=CCN1C(=O)c1ccccc1 (stereo not given)
 : -6.4*	-0.33*
Cc1ccc(C)c(S(=O)(=O)c2c[nH]c(=S)[nH]c2=O)c1
 : i	0.65
CC1CCN=C(N)S1 (stereo not given)
 : i	-2.2
Cc1cccc(C)c1NC(=O)CCCSc1nnc(-c2ccco2)n1-c1ccccc1
 : i	-0.58
CCC(C)(C)NC(=O)CN(Cc1ccccc1)C(=O)CCC(=O)Nc1nccs1
 : i	-1.5
COc1ccc(-n2nnnc2SCC(=O)Nc2cc(OC)c([N+](=O)[O-])cc2C)cc1
 : i	0.32
Cc1cccc(C)c1OCC(=O)N1CC2(C)CC1CC(C)(C)C2 (stereo not given)
 : i	-0.43
CCOC(=O)Cn1nnnc1C(CC)N(Cc1cccs1)Cc1cc2cc(C)ccc2[nH]c1=O (stereo not given)
 : i	-0.68
COc1ccc(/C(C)=N\NC(=O)c2ccc(-c3ccccc3)cc2)c(F)c1
 : i	1.6

Another view of some results above.
KCNQ2 block	KCNQ2 block baseline	SMILES
i	-0.49	Fc1ccc(-c2nnc(-n3nnc4ccccc43)c3ccccc23)cc1
i	1.6	COc1ccc(/C(C)=N\NC(=O)c2ccc(-c3ccccc3)cc2)c(F)c1
i	-0.58	Cc1cccc(C)c1NC(=O)CCCSc1nnc(-c2ccco2)n1-c1ccccc1
i	-0.9	Cc1onc(-c2ccccc2Cl)c1C(=O)Nc1nnc(-c2cccc([N+](=O)[O-])c2)s1
i	1.3	FC(F)(F)c1nc(-c2cccs2)ncc1-c1nnnn1-c1ccc(Cl)cc1
i	-0.68	CCOC(=O)Cn1nnnc1C(CC)N(Cc1cccs1)Cc1cc2cc(C)ccc2[nH]c1=O (stereo not given)

The listing picks up; the 3 compounds before the break are reprinted first.
| SMILES | KCNQ2 block | KCNQ2 block baseline |
| --- | --- | --- |
| Cc1cccc(C)c1OCC(=O)N1CC2(C)CC1CC(C)(C)C2 (stereo not given) | i | -0.43 |
| CCOC(=O)Cn1nnnc1C(CC)N(Cc1cccs1)Cc1cc2cc(C)ccc2[nH]c1=O (stereo not given) | i | -0.68 |
| COc1ccc(/C(C)=N\NC(=O)c2ccc(-c3ccccc3)cc2)c(F)c1 | i | 1.6 |
| COc1ccc(CNC(C)C(=O)Nc2ccc3ccccc3c2)cc1OC (stereo not given) | i | -0.79 |
| O=C(NCc1ccc(OC(F)(F)F)cc1)c1cc(-c2ccccc2)nn1CC1CC(c2cccnc2)=NO1 (stereo not given) | i | -0.5 |
| Cc1ccc(C(=O)N[C@H](C(=O)N2CCN(c3ccccc3F)CC2)C(C)C)cc1 | i | -1.1 |
| CCC(C)NC(=O)CSc1nc2ccsc2c(=O)n1-c1ccc(OC)cc1 (stereo not given) | i | 0.05 |
| CC(C(=O)Nc1ccccc1Br)N1c2cccc3cccc(c23)S1(=O)=O (stereo not given) | i | 0.8 |
| CC1CCCCN1Cc1c(O)ccc2c(=O)c(-c3ccccc3)coc12 (stereo not given) | i | -0.74 |
| CCc1cccc(C)c1NC(=O)CN(C)Cc1ccccc1F | i | -2 |
| CC(=O)OCCCN(C)CC/C=C1/c2ccccc2CSc2ccccc21 | i | 1.3 |
| Cc1ccc(-c2nnc(SCC#N)n2N)cc1 | i | 1.2 |
| Cc1ccc(C(=O)CC(Nc2ccc(F)cc2)c2ccccc2)cc1 (stereo not given) | i | 2 |
| CCOC(=O)c1cc(NC(=O)N2CCOCC2)c(C)nc1C | i | -0.89 |
| Cc1nnc(SCc2cc([N+](=O)[O-])cc3c2OCOC3)[nH]c1=O | i | -0.15 |
| COc1ccccc1NC(=O)C1=C(C)Nc2nnnn2C1c1cccc(Br)c1 (stereo not given) | i | 1.1 |
| Cc1ccc(-c2cc(C(=O)NCCCN3CCCC3)c3ccccc3n2)cc1C | i | -0.83 |
| COc1ccc(C(C)NC(=O)Cc2cccs2)cc1OC (stereo not given) | i | 0.13 |
| O=C(NC(=S)Nc1cc([N+](=O)[O-])ccc1O)C1CC1 | i | 1.1 |
| COc1ccc(-c2nnc(SCC(=O)NCc3cccs3)n2CC(C)C)cc1 | i | -1.1 |
| COc1ccc(N(C(=O)c2cnccn2)C(C(=O)NC2CCCCC2)c2ccc(O)cc2)cc1 (stereo not given) | i | 0.21 |
| CC(C)(C)c1ccc(C(=O)N2CCC(C(=O)c3ccccc3)CC2)cc1 | i | -0.17 |
| COc1ccc(CCNC(=O)c2ccc(-c3ccc([N+](=O)[O-])cc3)o2)cc1OC | i | 1.1 |
| CCC(=O)NC(=S)Nc1ccc(NC(=O)c2ccc([N+](=O)[O-])cc2)cc1 | i | -0.52 |
| CCn1c(=S)sc2c(=O)n(CC(=O)Nc3cccc(OC)c3)c(C)nc21 | i | 1.5 |
| CCCOC(=O)c1ccc(-c2c(C)noc2-c2ccc(OC)cc2O)o1 | i | -1.7 |
| CCOC(=O)c1ccc(-c2ccc(/C=N/NC(=O)CN(c3ccccc3Cl)S(C)(=O)=O)o2)cc1 | i | -0.95 |
| Cc1sc2nc(SCc3ccccc3)n(Cc3ccco3)c(=O)c2c1C | i | -0.03 |
| Fc1cccc(Cc2noc(CN3CCCCC3c3ccccn3)n2)c1 (stereo not given) | i | 0.28 |
| CCn1c(N)nc2c1c(=O)n(C)c(=O)n2C | i | 2.8 |
| COc1cccc(-n2nc(C(=O)Nc3ccc4c(c3)OCO4)c3ccccc3c2=O)c1 | i | -0.08 |
| COc1ccc([C@@H](C)NC(=O)c2ccc3oc(C(C)C)nc3c2)cc1 | i | 0.36 |
| CCOc1ccc(S(=O)(=O)N2Cc3ccccc3CC2C(=O)NCCCn2ccnc2)cc1 (stereo not given) | i | 0.04 |
| C/C(=N\NC(=O)CNc1cccc(C(F)(F)F)c1)c1ccc(Br)cc1 | i | 0.25 |
| CC1CCCC(C(=O)O)N1C(=O)CCSSCCC(=O)N1C(C)CCCC1C(=O)O (stereo not given) | i | 0.01 |
| COc1ccc(S(=O)(=O)N2CCN(c3ccc(F)cc3)CC2)cc1OC | i | -0.52 |
| COc1ccc(OC)c(C(=O)CSc2nc3cccnc3n2C)c1 | i | 0.87 |
| Cc1ccc(C2=NOC3(CC(=O)N(c4ccc(C)cc4)C3=O)C2)cc1 (stereo not given) | i | 0.74 |
| CCOC(=O)C(C)N1C(=O)S/C(=C/c2cc(C)n(-c3ccccn3)c2C)C1=O (stereo not given) | i | -0.31 |
| CN(C)CCCN(CCCNC(=O)/C=N/O)Cc1ccccc1 | i | 2.5 |
| Cc1cc(C)c(NC(=S)NC(CO)(CO)CO)c(C)c1 | i | 0.76 |
| CC(C)(C)n1nnnc1C(c1cccnc1)N1CCN(C(=O)c2ccco2)CC1 (stereo not given) | i | 0.56 |
| COC(=O)/C=C(\C)NC(=O)c1ccccc1Cl | i | 0.47 |
| O=C(NCCCn1ccnc1)c1ccc(Cl)cc1 | i | 0.05 |
| Nc1ccc(N2CCN(c3cccc(Cl)c3)CC2)cc1 | i | -0.21 |
| Fc1cc(Br)cc(F)c1NC(=S)N1CCOCC1 | i | 0.78 |
| CC(C)(C)C(=O)NC1(C(F)(F)F)C(=O)Nc2c1c(=O)[nH]c(=O)n2Cc1ccco1 (stereo not given) | i | 0.57 |
| COc1ccc(/C(C)=N/N2C(C)CCCC2C)c(OC)c1 (stereo not given) | i | -0.32 |
| N#CCSc1nc2ccc(N3CCOCC3)cc2c(=O)n1CCc1ccccc1 | i | -1.4 |
| CCC(CC)c1nn2c(N)c(/C=C3\C(C)=Nc4ccccc43)c(=O)nc2s1 | i | -1.1 |
| Nc1ccccc1Sc1ccc(C(F)(F)F)cc1[N+](=O)[O-] | i | -0.5 |
| O=C(CCCOc1ccccc1)NN1C(=O)NC2(CCCCC2)C1=O | i | 0.91 |
| COc1cc(Cn2c(N)c(C#N)c3nc4ccccc4nc32)cc(OC)c1 | i | -0.25 |
| CCOc1cc(/C=C2\CCn3c2nc2cc(Cl)ccc2c3=O)ccc1O | i | -0.09 |
| COc1ccc(OCc2cc(C(=O)N3CCCC(OC)C3)no2)c2ccccc12 (stereo not given) | i | -1.2 |
| Cc1ccc(C(C(=O)NCc2ccco2)N(C(=O)CNC(=O)c2cccs2)c2c(C)cccc2C)cc1 (stereo not given) | i | -2.2 |
| Cn1c(SCc2nc3ccccc3[nH]2)nnc1-c1cccnc1 | i | 0.47 |

From PubChem BioAssay
